HPGD inh – inhibitors of human 15-hydroxyprostaglandin dehydrogenase (HPGD). P15428. purified HPGD, NADH fluorescence kinetic, PGE2 substrate. Potency, µM, for the others: at the top dose activity change, negative = inhibition, actives largely listed as inhibitors. 150,000 compounds, 4.3% hits; active = well fitted inhibition curve with a large enough effect (not every such curve was filed as active); inconclusive = small, poorly fitted or top-dose-only effect, or another doubt; inactive = no such curve, though single readings can be large or run the other way;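 also: top concentration of the series not given in the record; plate controls included wells without enzyme; inactives centre near -10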
Target sequence (P15428 whole entry, looked up): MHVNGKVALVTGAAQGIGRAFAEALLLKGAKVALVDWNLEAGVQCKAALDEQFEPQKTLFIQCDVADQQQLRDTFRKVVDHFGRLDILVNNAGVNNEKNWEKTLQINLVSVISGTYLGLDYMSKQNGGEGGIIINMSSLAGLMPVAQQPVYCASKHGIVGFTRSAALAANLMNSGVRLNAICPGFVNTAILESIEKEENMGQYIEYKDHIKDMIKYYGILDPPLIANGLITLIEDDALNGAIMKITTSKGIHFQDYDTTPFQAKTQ
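20 nM HPGD preincubated 15 min at room temperature with compound in 50 mM Tris-HCl pH 8, 0.01% Tween 20. Started with 1 mM NAD+ and 30 uM prostaglandin E2; NADH fluorescence (360/450 nm) read 5 times over 30-s intervals, last minus first.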
* = called active by the depositor; u = inconclusive; & = joins results of further samples. % is scaled to controls: 0 for no effect and ±100 for the full control effect; potency is read from the fitted curve at half-maximal effect. These rows are one share of the data; count on the stated rates, not on these rows.

SMILES	HPGD inh
CN(C)S(=O)(=O)c1ccc(C(=O)NCc2nnc(SCC(=O)Nc3ccc(F)cc3)n2-c2ccc(F)cc2)cc1	-12%
O=C(O)CCCCCNC(=O)c1ccccc1Br	-14%
O=C(Nc1cccc(S(=O)(=O)C(F)F)c1)c1ccc(S(=O)(=O)N2CCOCC2)cc1	1%
O=[N+]([O-])c1cc(C(F)(F)F)ccc1Oc1cccnc1[N+](=O)[O-]	-7%
CCOc1ccc(/C=N/N(C)c2ccccc2)cc1OC	-10%
COc1ccc(/C=C(/NC(=O)c2ccccc2)C(=O)NC2CCS(=O)(=O)C2)cc1 (configuration not stated)	-16%
COc1ccc(CCNC(=O)C/C(C)=N/NC(=O)C23CC4CC(CC(C4)C2)C3)cc1OC	-1%
Cc1nc2ccc(NC(=O)c3ccc(S(=O)(=O)N(C)c4ccccc4)cc3)cc2s1	u
COc1ccc(CCNC(=O)c2cnn(-c3ccc(C)c(C)c3)c2NC(=O)c2ccco2)cc1OC	-3%
COc1cccc(C=Nc2ccc(C)c(F)c2)c1O	-9%
COCCn1c(=NC(=O)c2cc3ccccc3oc2=O)sc2cc(S(N)(=O)=O)ccc21	u
O=C(c1ccc(Cl)cc1)c1cnc(-c2ccccc2)s1	-5%
CCOC(=O)CCc1c(C)nc(SCC(=O)O)c(C#N)c1C	-22%
O=C(CCn1c(=O)sc2ccccc21)NCc1ccccc1	-2%
COc1ccc(NC(=O)/C(=C\c2ccc3c(c2)OCO3)NC(C)=O)cc1	-17%
Cc1ccc(-c2ccc(SCC(=O)c3ccccc3)nn2)cc1	u
CC1(C)C2([N+](=O)[O-])CN3CC1([N+](=O)[O-])CN(C2)C3c1ccccc1 (configuration not stated)	-3%
CC1CN(CCC(=O)Nc2ccc3c(c2)CCC3)CC(C)O1 (configuration not stated)	3%
Cc1scc(C(=O)NNC(=S)NCC2CCCO2)c1C (configuration not stated)	-11%
CCCCOC(=O)c1ccc(NC(=O)Nc2ccc(OC)c(OC)c2)cc1	-8%
Cc1ccc(C)c(NS(=O)(=O)c2cc(C(=O)NCc3ccccn3)ccc2Cl)c1	-9%
Cc1cc(C(=O)NCCc2ccccc2)ccc1[N+](=O)[O-]	-5%
COc1cc2c(=O)nc3n(c2cc1OC)C(c1ccccc1)N=C(N)N3 (configuration not stated)	u
Cc1ccccc1NC(=O)CN1C(=O)NC(C)(c2ccc3c(c2)OCO3)C1=O (configuration not stated)	-1%
CCC(C(=O)NC1CCCC1)N(C(=O)c1snc(C(N)=O)c1N)c1ccc2c(c1)OCCO2 (configuration not stated)	-9%
O=C(CCl)NC(=O)NC12CC3CC(CC(C3)C1)C2	-9%
Cc1ccc(C)c2[nH]c(=O)c(CN(CC3CCCO3)C(=O)NC3CCCCC3)cc12 (configuration not stated)	-14%
O=C(COC(=O)c1cncc(Br)c1)NC1CC1	-13%
NC(=S)n1[nH]c(-c2ccc([N+](=O)[O-])cc2)c(N=Nc2ccc(O)cc2)c1=O	-29%
CC1(C)CC(=O)C(C=NCCCn2ccnc2)=C(O)C1	-5%
C/C(=N/NC(=O)C1COc2ccccc2O1)c1ccco1 (configuration not stated)	u
COc1ccc(-c2cc(Nc3ccccc3NC(=O)C(F)(F)F)n(CCC#N)n2)cc1	-10%
COc1ccc(CCNC(=O)c2ccc(N3CCCC3=O)cc2)cc1OC	-6%
CC(C)CN(C)c1nc(N)c(C(=O)N=C(N)N)nc1Cl	-15%
C=CCNC(=O)c1c(N)n(-c2ccc3c(c2)OCO3)c2nc3ccccc3nc12	-24%
O=c1c2[nH]c3ccccc3c2ncn1Cc1ccccn1	-16%
CCCNC(=O)c1cn(CC)c2cc(N3CCN(C)CC3)c(F)cc2c1=O	-26%
Cc1cccc(/C(N)=N/OC(=O)N2CCOCC2)c1	-16%
CC(C)[C@@H](CC(=O)N[C@@H]1CCNC[C@H]1C(=O)N[C@H](CC(=O)N[C@@H](CCC(=O)O)CC(=O)O)Cc1c[nH]c2ccccc12)NC(=O)C[C@H](Cc1c[nH]c2ccccc12)NC(=O)[C@@H]1CNCC[C@H]1N	-4%
Cc1cc(C)nc(SCC(=O)N/N=C/C=C/c2ccccc2)n1	-26%
C[N+](C)(C)CCCCCCCCCC[N+](C)(C)C	-11%&-5%&-9%
COC(=O)c1[nH]c2cc(OC)ccc2c1NC(=O)c1nonc1C	-15%
C=CCn1c(SCC(=O)NC(C)(C)C)nnc1-c1ccccc1O	-8%
OCc1nc2ccccc2n1C/C=C/c1ccccc1	-3%
COC(=O)c1ccccc1NC(=O)c1ccc2c(c1)OCCO2	-13%
CC1(C)CC(=O)C(C(C2=C(O)CC(C)(C)CC2=O)c2cccc(O)c2)C(=O)C1 (configuration not stated)	-9%
O=C(CCCCn1c(=O)[nH]c2ccccc2c1=O)NCc1ccc2c(c1)OCO2	-3%
Cc1ccc(S(=O)(=O)Nc2nc3ccccc3nc2NCc2ccco2)cc1C	u
Cc1c(C(=O)N/N=C/C(C)C)[nH]c2c([N+](=O)[O-])cccc12	-7%
COc1ccc(NCc2ccc([N+](=O)[O-])s2)cc1	-7%
CCOc1ccc(S(=O)(=O)N(CC(=O)N2CCc3ccccc32)Cc2ccco2)cc1	-20%
Cc1ccc(S(=O)(=O)N2CCC(=O)N(CCOCc3ccc(F)cc3)CC2)cc1	-6%
O=C(Oc1ccc2c3c(c(=O)oc2c1)CCC3)c1ccccc1[N+](=O)[O-]	1%
CCCOc1ccc(C(=O)N2CCN(c3ccc(N)cc3Cl)CC2)cc1	-8%
COc1cc(-c2cc(C(=O)NN3CCN(C)CC3)c3ccccc3n2)cc(OC)c1OC	-8%
Cc1ccc(NC(=O)COc2ncnc3ccccc23)cc1S(=O)(=O)N1CCOCC1	0%
O=C(CSc1nnc(-c2ccccc2)n1Cc1ccccc1)NNC(=O)c1ccccc1O	-17%
Cc1cc2nc(CCN(Cc3cccnc3)C(=S)Nc3ccccc3)[nH]c2cc1C	-1%
COc1ccc(S(=O)(=O)N2CCCCC2)cc1NC(=S)Nc1ccccc1	-4%
Cc1ccc(S(=O)(=O)N2CCC(C(=O)N[C@@H](C)C(=O)NC3CCS(=O)(=O)C3)CC2)cc1 (some centres not stated)	1%
Next section
SMILES	HPGD inh
CC1CC(C)CN(C/C=C/c2ccccc2[N+](=O)[O-])C1 (configuration not stated)	-7%
O=C(COc1ccc(-c2ccccc2)cc1)N1CCN(S(=O)(=O)Cc2ccccc2)CC1	-10%
Cc1ccc2nc(C(F)(F)F)c(C#N)c(N)c2c1	-14%
COC(=O)c1c(NC(=O)COC(=O)c2ccccc2O)sc2c1CCCCC2	u
O=C(Nc1ccccc1)c1ccc(CSc2ccccn2)cc1	u
O=C(c1ccc(Cl)c(Cl)c1)N(Cc1ccco1)c1ccc(O)cc1	-8%
Cc1[nH]c(=O)c(C#N)c2c1CCCC2	-27%
N#CC1=C(SCC(=O)c2ccccc2)NC2=C(C(=O)CCC2)C1c1ccco1 (configuration not stated)	u
O=C(/C=N/O)NCc1ccncc1	-5%
CCCCCN=C(N)N/N=C/c1c[nH]c2ccc(OC)cc12	-6%&-7%
Clc1ccc(-c2nnc(CCc3ccccc3)o2)c(Cl)c1	-30%
COc1ccc2c(c1)c(CC(=O)O)c(C)n2Cc1ccc(F)cc1	-18%
CC1(C)CC(=O)C(C=NCCN2CCN(CCc3ccccc3)CC2)=C(O)C1	-2%
COc1ccc(N=C2C(=Nc3ccc(OC)cc3)N(c3ccc(OC)cc3)C(=S)N2c2ccccc2)cc1	-14%
COc1cc(C(=O)OC2CCCCC2=O)cc(OC)c1C (configuration not stated)	-1%
Cc1ccc(CCNC(=O)C2CCCN2S(=O)(=O)c2ccc3c(c2)CCC(=O)N3)cc1 (configuration not stated)	-7%
COc1cc(/C=C2/SC(=S)N(CC(=O)Nc3nc4ccccc4s3)C2=O)cc(OC)c1OC	-20%
O=C(NCC1CCCO1)C1CC(=O)N(C2CCCC2)C1 (configuration not stated)	-6%
FC(F)(F)c1cc(-c2ccco2)nc2ncnn12	u
CCCCNS(=O)(=O)c1ccc(NS(=O)(=O)c2c(C)cc(C)cc2C)cc1	-11%
COc1ccc(-c2cc(-c3n[nH]c(=S)n3-c3cc(OC)ccc3OC)[nH]n2)cc1	u
Cc1ccc(OCC(=O)OCC(=O)c2c(N)n(C)c(=O)n(C)c2=O)cc1C	3%
O=C(O)CCCSCC(=O)Nc1ccccc1	-4%
CCCOC(=O)c1[nH]c2c(c1C)C(=O)CC(c1cc(OC)c(OC)c(OC)c1)C2 (configuration not stated)	-7%
O=C(CCS(=O)(=O)c1cccc2nonc12)N1CC(=O)N(CCc2ccccc2)C(=O)C1	1%
CCn1cc(C(=O)Nc2ccc3c(c2)OCCO3)c2cc(OC)c(OC)cc2c1=O	-17%
CCOc1cc(NC(=S)NCC2CCCO2)c(OCC)cc1NC(=O)c1ccccc1 (configuration not stated)	-9%
Cc1cccc(-n2nc3c(c2NC(=O)c2ccco2)CSC3)c1C	-10%
COc1ccc(Br)cc1CN1CCCC(C(=O)N2CCCCC2)C1 (configuration not stated)	-3%
Cc1cc(NC(=S)N(CCCN2CCOCC2)Cc2ccco2)ccc1Cl	-16%
CCC(=O)N1CN(S(=O)(=O)c2ccc(C)cc2)CC1C (configuration not stated)	1%
COc1ccc(C(=O)c2coc3ccc(O)c(CN(C)C)c23)cc1	-5%
CC#CCN1c2ccccc2[C@]23C[C@@H](C(=O)OC)N(C(=O)CC(C)C)C2=NC(C(=O)OC)=C(C(=O)OC)[C@H]13	-1%
Cc1ccc(Cn2c(NC(=O)c3ccco3)nc3ccccc32)cc1	u
COCCn1c(SCc2cccnc2)nnc1-c1c[nH]c2ccccc12	-7%
Cc1ccc(CN(CC(=O)N/N=C/c2ccco2)S(=O)(=O)c2ccc(C)cc2)cc1	-7%
Cc1nc2cc(F)ccc2n1C1CCN(S(=O)(=O)c2ccccc2)CC1	-1%
CC1CCCN(C(=O)CSc2cnc3ccccc3n2)C1 (configuration not stated)	4.5µM*
N#Cc1ccccc1-c1cncnc1NCc1cccnc1	u
COc1ccc(S(=O)(=O)N(C)CC(=O)NCc2cccnc2)cc1C	3%

A second format for part of the listing above:
COc1ccc(NC(=O)/C(=C\c2ccc3c(c2)OCO3)NC(C)=O)cc1
  HPGD inh: -17%

COc1ccc2c(c1)c(CC(=O)O)c(C)n2Cc1ccc(F)cc1
  HPGD inh: -18%

CC1(C)CC(=O)C(C(C2=C(O)CC(C)(C)CC2=O)c2cccc(O)c2)C(=O)C1 (configuration not stated)
  HPGD inh: -9%

O=C(O)CCCSCC(=O)Nc1ccccc1
  HPGD inh: -4%

Molecules above that contain a thiophene ring, fused or not:
SMILES	HPGD inh
Cc1scc(C(=O)NNC(=S)NCC2CCCO2)c1C (configuration not stated)	-11%
COc1ccc(NCc2ccc([N+](=O)[O-])s2)cc1	-7%
COC(=O)c1c(NC(=O)COC(=O)c2ccccc2O)sc2c1CCCCC2	u

(continued)
SMILES	HPGD inh
COc1cccc(NC(=S)NCCCN2CCOCC2)c1	-6%
O=C(CCCN=C1NS(=O)(=O)c2ccccc21)OCC(=O)N1CCc2ccccc21	-2%
Cn1cc(Cl)c(C(=O)Nc2cccc(Cl)c2Cl)n1	-29%
COc1ccccc1-c1cc(C(F)(F)F)nc(N2CCOCC2)n1	-25%
CCN(CC)C(=O)C1CCCN(Cc2sccc2C)C1 (configuration not stated)	-8%
O=C(O)[C@@H](O)[C@@H](O)[C@@H](O[C@H]1O[C@@H](CO)[C@@H](O)[C@@H](O)[C@@H]1O)[C@@H](O)CO	-1%
CC[C@H]1C2=C3C(CC[C@H]4C(OCc5ccc(F)cc5C(F)(F)F)OC[C@](C)([C@@H]34)N(C(=O)OC(C)(C)C)C2)C2COC(=O)OCC21 (some centres not stated)	-12%
CC(=O)CCc1c[nH]c2c(C(=O)O)cccc12	0%
Cc1cc2cc(C=O)c(Cl)nc2cc1C	-1%
O=C(COc1ccc(Br)cc1)N/N=C1/SCC(=O)N1Cc1ccccc1	-8%
CCOC(=O)N1CCC(Nc2c(NCCN3CCN(c4ccccc4F)CC3)c(=O)c2=O)CC1	-6%
CCOc1ccc(-c2c(C#N)c(N)nc3c2c(=O)n(C)c(=O)n3C)cc1OC	-10%
CCOC(=O)CCC(=O)Nc1ccc(S(=O)(=O)N2CCCC2)cc1	-10%
COc1ccccc1NC(=O)NCCCN1CCN(c2cccc(Cl)c2)CC1	-2%
CCc1cccc(C)c1NC(=O)COn1nnc2ccc(C(F)(F)F)cc21	-8%
Cc1ccc(C)n1-c1cccc(N)c1	-7%
O=C1CCc2cc(S(=O)(=O)N3CCC(C(=O)NC4CCCCCCC4)CC3)ccc2N1	-4%
Cc1ccc(S(=O)(=O)N2Cc3ccccc3CC2C(=O)Nc2cc(C)on2)cc1 (configuration not stated)	-5%
N#CC(c1ccccc1)C1CCN(Cc2ccccc2)CC1 (configuration not stated)	-2%
COc1cc(C2CC(=O)c3cnc(N)nc3C2)cc(OC)c1OC (configuration not stated)	-8%
COc1ccccc1C1C2=C(N=c3s/c(=C/c4cccc(OCC(=O)O)c4)c(=O)n31)c1ccccc1CC2 (configuration not stated)	28µM*
Cc1ccc(CC(=O)Nc2cccc(C)n2)cc1	-4%
CCC(C)N1CC(C(=O)NC2CCCCC2)CC1=O (configuration not stated)	-3%

Ordered by the number under HPGD inh (lowest first): three from the list above.
SMILES	HPGD inh
COc1ccc(CCNC(=O)c2ccc(N3CCCC3=O)cc2)cc1OC	-6%
O=C1CCc2cc(S(=O)(=O)N3CCC(C(=O)NC4CCCCCCC4)CC3)ccc2N1	-4%
Cc1ccccc1NC(=O)CN1C(=O)NC(C)(c2ccc3c(c2)OCO3)C1=O (configuration not stated)	-1%

Bioassay records as filed in PubChem.
